Screens from PubChem.
BJeLR viability = BJeLR cell viability loss | inhibition, % (test concentration not listed) | actives 0.17% (n = 300,000) | BJeLR (HRASV12) viability, CellTiter-Glo ATP luminescence, 48 h; reference of the scale not given here;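 active = replicate mean above 50%; inconclusive = above 50% but judged a plate artefact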;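 also: 50 nL library stock added to about 25 µL; numbers are from one replicate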
Mtb hypoxia rep = Mtb hypoxia fluorescent reporter inhibition; M. tuberculosis hypoxia-regulated fluorescent reporter, fluorescence; fluorescence inhibition, % (concentration not given with the values); actives 0.1% (n = 300,000); AID 1159583;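 active = 35 to 45% if threefold the growth effect, above 45% if 1.5-fold the growth effect; inactive = the rest, general growth blockers included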;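 also: wells of about 50 µL received 100 nL stock; 0% = vehicle wells and 100% = reference inhibitor wells; whole bacteria with a GFP reporter of the hypoxia response; strong numbers were not always called active; many hits fall short of the cut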
Sa RN4220 lethal = S. aureus RN4220 growth inhibition; OD600, 16 h; AID 1259311; inhibition, % (concentration not given with the values); actives 0.33% (n = 330,000);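 active = z-score of -3 or lower and OD600 up to 0.18 on both plates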;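 also: plate controls were untreated cells for no effect and reference antibiotic for full effect; stock transfer was 100 nL into about 80 µL; one replicate is shown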
Sa ugtP lethal = kills S. aureus RN4220 lacking UgtP | S. aureus RN4220 ugtP deletion, OD600 growth, 16 h; some inactives read as strong as hits | actives 0.54% (n = 330,000) | growth inhibition, % (test concentration not listed);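 active = z-score under -3 and OD600 up to 0.15 on both plates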;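 also: plate controls were untreated wells for no effect and antibiotic for full effect; wells of about 80 µL received 100 nL stock; the first replicate is given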
PrP UTR inh = inhibition of PrP 5' UTR reporter expression; cell-based PrP 5' UTR mRNA reporter, plate reader; inhibition, % (concentration not given with the values); actives 0.35% (n = 340,000); AID 488862;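 active = every replicate at 50% or more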;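 also: 0 = median of the neutral control wells; tested in H4 reporter cells; numbers are from one replicate; inactives centre near -14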
Autofluor counter = counter-screen for toxin protease inhibitors: compound fluorescence; compound autofluorescence counterscreen, microsphere flow cytometry; stronger effect = higher value; fluorescence intensity (concentration not given with the values); actives 3.1% (n = 360,000);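 active = at least 3 SD above the mean of all compounds, about 16000 in these data; inconclusive = too few beads counted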;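 also: 100 nL of 1 mM stock went into each well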
Mtb hypoxia rep growth = recorded beside Mtb hypoxia rep, whose call it bears; growth inhibition, %; measured here: M. tuberculosis growth (absorbance);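 0% = vehicle and 100% = reference antibiotic; read after six days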
* hit, by the source's call; ? = inconclusive; / = not tested or not shown.

SMILES	BJeLR viability	Mtb hypoxia rep	Mtb hypoxia rep growth	Sa RN4220 lethal	Sa ugtP lethal	PrP UTR inh	Autofluor counter
CC(C)(C)C(=O)NC(NC(=S)Nc1ccc(S(N)(=O)=O)cc1)C(Cl)(Cl)Cl (stereo not drawn)	8	13	4	5.1	10	-39	1964
O=C(C1=C(O)C(=O)N(CCc2ccccc2)C1c1ccncc1)c1cc2ccccc2o1 (stereo not drawn)	-9	10	5	14	5	-22	3673
Cc1nc(-c2cc(-c3ccc(Cl)cc3)no2)cs1	9	1	4	3.7	11	-59	3861
O=C(NCc1ccco1)c1ccc(CS(=O)(=O)Cc2ccc(Cl)cc2)o1	2	4	5	-0.1	-1	6	11634
S=c1[nH]nc(Cc2cccs2)n1-c1cccc2ccccc12	-3	-5	5	8.5	1	-23	2158
Cc1c(NC(=O)c2ccccc2)c(=O)n(-c2ccccc2)n1C	-7	0	3	-18	-2	-10	3241
CC1=CC(c2ccc(Cl)cc2)n2nc(NS(=O)(=O)c3ccc(C)cc3)nc2N1 (stereo not drawn)	2	-6	0	11	-12	-13	23033*
NNC(=O)c1ccc(CSc2cccc3cccnc23)cc1	7	2	-1	-5.1	4	-8	3823
COc1ccc(CC(=O)Nc2cccc(S(=O)(=O)N3CCCC3)c2)cc1OC	/	7	5	2.3	4	-15	7971
O=C1C2ON(c3ccccc3)C(c3cccnc3)C2C(=O)N1c1ccccc1 (stereo not drawn)	-14	2	1	2.8	1	-7	4395
COc1cccc2cc(C(=O)NCc3ccc(C)cc3)c(=O)oc12	4	1	3	-1.5	6	-8	3584
CCCOC(=O)Nc1sc2c(c1C(=O)OCC)CCC2	-6	8	0	3.1	92*	0	9620
COc1ccccc1C(=O)COC(=O)c1ccc(-n2cnnn2)cc1	0	6	-2	3.2	15	-21	6028
COc1ccc(C(=O)OCC(=O)NCC2CCCCC2)c(OC)c1	/	5	3	1.6	6	-11	?
CCC1CCCCN1C(=O)COC(=O)c1ccc(Br)o1 (stereo not drawn)	/	5	7	2.4	2	-19	3749
CC(C)(C)c1cc(C(c2cccnc2)N2CCN(CCO)CC2)cc(C(C)(C)C)c1O (stereo not drawn)	18	20	19	71	81	-19	5236
CC(OC(=O)CCc1nc(=O)c2ccccc2n1C)C(=O)NCc1ccc2c(c1)OCO2 (stereo not drawn)	5	8	9	1.3	7	-13	3362
CCOC(=O)C1=C(C)NC(=S)NC1c1ccsc1 (stereo not drawn)	6	2	-1	-3.1	0	-11	2984
O=C(NCCc1ccccc1)C1CCC(CNS(=O)(=O)c2ccccc2)CC1 (stereo not drawn)	12	-2	-6	1.8	9	2	4384
Cc1ccc(C(=O)ON=C2CC3CCC2(C)C3(C)C)cc1 (stereo not drawn)	/	1	13	5.1	-9	/	/
NS(=O)(=O)c1ccc(NC(=O)COC(=O)CSCc2ccc(F)cc2)cc1	/	11	-1	7.6	-1	-29	3349
O=C1CN(c2ccccc2)C(=S)N1c1ccccc1	-4	9	-4	3.5	4	15	?
CC1CCc2nc(N)c(C#N)c(-c3cccn3C)c2C1 (stereo not drawn)	-5	/	/	2.3	6	-26	2348
FC(F)(F)c1nnc2ccc(Sc3ccccn3)nn12	-1	-5	9	-1.1	1	7	2018
CCOc1ccc(-c2csc(/C(C#N)=C\c3ccc(O)c([N+](=O)[O-])c3)n2)cc1	6	-1	-14	32	14	-20	9443

More compounds.
SMILES	BJeLR viability	Mtb hypoxia rep	Mtb hypoxia rep growth	Sa RN4220 lethal	Sa ugtP lethal	PrP UTR inh	Autofluor counter
CCOC(=O)C(Cc1ccccc1)C(=O)Nc1ccc(N(CC)CC)cc1 (stereo not drawn)	-4	-1	-3	3.9	11	-19	2528
COc1ccc(C=NNC(=O)c2ccc(-c3ccccc3)cc2)c(OC)c1OC	/	-1	-5	1.1	12	/	/
COc1ccc(N2CCN(C(=O)c3cc(=O)c4cc(C)c(C)cc4o3)CC2)cc1	-6	-3	-10	-1.7	80	-5	3164
COc1ccc(/C=N\NC(=O)c2sc(N)nc2C)cc1OC	1	/	/	/	/	-26	4312
NC(=O)C1CCN(C(=O)CCc2ccsc2)CC1	-7	0	13	3.3	-1	-5	4311
N#C/C(C(=O)Oc1ccccc1)=C1\C=CC=CN1	2	/	/	/	/	-89	3304
O=C1CCN(S(=O)(=O)c2ccc(Cl)cc2)CC1	-4	-5	4	1.7	2	-8	5212
COc1ccc(/C=C/CN2CCCC(C(=O)c3cc(F)ccc3F)C2)cc1 (stereo not drawn)	-1	-2	-8	-0.1	4	-13	2461
CC1(C)C(=O)N(c2ccccc2)C(=O)c2ccccc21	-7	0	3	2.0	8	12	5905
Cc1onc(C(=O)N2CCN(Cc3ccccc3)CC2)c1[N+](=O)[O-]	-10	/	/	0.8	7	-1	5347
COc1ccc(NC2=CC(=O)CC(C)(C)C2)cc1	-3	17	9	5.0	5	-14	3662
Cc1c(Br)c(C(=O)NCc2cc3cc(Cl)ccc3[nH]2)nn1C	20	-11	12	4.2	-29	-9	2394
CN(C)CCCOc1ccc(C(C)(C)c2ccccc2)cc1	-3	23	13	2.4	39	-22	10642
CCOC(=O)N1[C@@H]2C=C(C)[C@@H]2[C@@H]2[C@@H](C)C(=O)N21	3	3	0	4.0	1	-20	2164
COc1cccc(/C=C/C(=O)OCC(=O)N(C)CC(=O)Nc2ccccc2Cl)c1OC	/	8	7	5.1	2	-7	7946
COc1cc(C(=O)N2CCN(S(=O)(=O)c3cccs3)CC2)cc(OC)c1C	-7	6	2	-5.1	6	-38	4392
CCOC(=O)c1cnc(-n2cc(C)cn2)nc1Nc1ccccc1OCC	8	3	2	2.7	-9	2	23982*
O=C1c2ccccc2C(=O)N1OCCOCCOCCON1C(=O)c2ccccc2C1=O	1	3	0	2.4	-3	-7	3858
Cc1occc1C(=O)Nc1nnc(-c2cccs2)s1	-6	8	0	9.3	-10	-99	2329
CCCCCCN1C=CC=C/C1=C/C=C(C#N)C#N	-8	7	7	4.6	1	-20	3532
Cc1cccc(NC(=O)CSc2c3c(nc4ccccc24)CCC3)n1	-8	3	6	3.7	-1	-21	2514
COc1ccc(NC(=O)NCCc2cccc(Cl)c2)cc1OC	-9	8	11	-0.3	5	-8	2477
Cc1ccc(C(=O)N/C(=C\c2ccc(F)cc2)C(=O)NCCCn2ccnc2)cc1	1	4	3	-0.8	0	-5	3043
O=C(CSCc1ccc(F)cc1)NCc1ccc2c(c1)OCO2	6	3	5	1.2	7	-13	2586
CCOC(=O)c1ccc(S(=O)(=O)N2CCNCC2)cc1	5	5	-1	2.3	5	-12	16012

Single records (already shown):
Results for COc1cc(C(=O)N2CCN(S(=O)(=O)c3cccs3)CC2)cc(OC)c1C : BJeLR viability = -7; Mtb hypoxia rep = 6; Mtb hypoxia rep growth = 2; Sa RN4220 lethal = -5.1; Sa ugtP lethal = 6; PrP UTR inh = -38; Autofluor counter = 4392
Results for COc1ccc(/C=C/CN2CCCC(C(=O)c3cc(F)ccc3F)C2)cc1 (stereo not drawn) : BJeLR viability = -1; Mtb hypoxia rep = -2; Mtb hypoxia rep growth = -8; Sa RN4220 lethal = -0.1; Sa ugtP lethal = 4; PrP UTR inh = -13; Autofluor counter = 2461

(more compounds)
SMILES	BJeLR viability	Mtb hypoxia rep	Mtb hypoxia rep growth	Sa RN4220 lethal	Sa ugtP lethal	PrP UTR inh	Autofluor counter
Cc1cc(NS(=O)(=O)c2ccc(NC(=O)C(C)Oc3cccc(C)c3C)cc2)nc(C)n1 (stereo not drawn)	3	6	2	-1.3	-2	-7	7863
CCN1CCN(c2cc(C)c3cc(NC(=S)NCCCN4CCc5ccccc5C4)ccc3n2)CC1	15	-2	0	2.3	2	-18	5329
CCc1cc(C(=O)NNC(=S)NCC2CCCO2)cs1 (stereo not drawn)	-5	5	9	6.6	7	/	11127
CCc1ccccc1NC(=O)c1cc2sccc2n1C	-2	7	5	9.7	9	-11	4218
O=P(NCc1ccccc1)(Oc1ccccc1)Oc1ccccc1	0	3	-7	3.8	-4	-3	2397
Fc1ccc(NC(=S)NN=Cc2ccccc2Cl)cc1	/	-6	8	-4.2	86*	-35	4157
O=C(CSc1oc(-c2ccc(F)cc2)nc1S(=O)(=O)c1ccc(F)cc1)NCC1CCCO1 (stereo not drawn)	-13	3	-1	5.1	3	-14	10094
Cc1nc(OCC(=O)c2ccc(Cl)cc2)c(C#N)c2c1COC(C)(C)C2	-4	2	8	3.7	-1	-19	3017
FC(F)(F)c1cc(-c2cccs2)nc(N2CCOCC2)n1	0	/	/	2.0	0	6	4454
CCc1c(C)sc(NC(=O)/C=C/C(=O)O)c1C(N)=O	-5	/	/	/	/	-26	4710
O=C(NN=Cc1ccccc1F)c1cccc2ccccc12	/	2	5	1.9	8	/	/
O=C(NNC(=O)c1ccccc1Cl)c1cccnc1	-2	-9	1	2.7	4	-19	5714
CSCC(=O)Nc1cc(C)on1	1	2	17	2.8	2	13	/
Cc1csc(CN(C)C(=O)C2CCC(=O)N(CCN(C)C)C2)n1 (stereo not drawn)	5	0	-4	3.9	2	4	5460
O=C(COc1coc(CN2CCN(c3ccccc3F)CC2)cc1=O)Nc1ccccc1	1	6	-5	1.8	4	-6	4244
CCCn1cnc2c(Sc3c([N+](=O)[O-])ncn3C)nc(N)nc21	/	14	11	6.3	4	-17	3609
CS(=O)(=O)Nc1cccc2cccnc12	/	/	/	-0.5	4	-4	4659
O=C1CCN(Cc2ccco2)C(=S)N1	/	5	10	2.7	-1	-22	4124
CC(C)C[C@H]1C(=O)N2CCC[C@H]2[C@]2(O)O[C@](NC(=O)[C@@H]3C=C4c5cccc6[nH]c(Br)c(c56)CC4N(C)C3)(C(C)C)C(=O)N12 (stereo partly drawn)	-5	/	/	/	/	-19	5375
COc1ccc(OC)c(CNS(=O)(=O)c2c(C)nc3scc(C)n3c2=O)c1	1	-2	-1	3.7	1	-8	6692
CCn1c(=O)c(=O)n(CC)c2cc(S(=O)(=O)N3CCc4ccccc43)ccc21	9	/	/	6.4	8	-1	6209
COc1cccc(CN2CC(C(=O)NCC3CCOCC3)CCC2=O)c1 (stereo not drawn)	3	3	1	1.0	5	-12	5464
Cc1ccsc1C(=O)C1CCCN(Cc2cnc(N3CCCC3)s2)C1 (stereo not drawn)	-14	7	11	3.3	-2	-8	2540
Clc1ccc(C2CC(c3ccco3)n3ncnc3N2)cc1Cl (stereo not drawn)	6	/	/	-2.3	-2	0	?
FC(F)(F)c1ccccc1CNCCc1c[nH]c2ccccc12	-6	12	8	1.0	-7	-17	3281

Rewritten with bars between the fields: entries from further up.
SMILES | BJeLR viability | Mtb hypoxia rep | Mtb hypoxia rep growth | Sa RN4220 lethal | Sa ugtP lethal | PrP UTR inh | Autofluor counter
COc1cccc(CN2CC(C(=O)NCC3CCOCC3)CCC2=O)c1 (stereo not drawn) | 3 | 3 | 1 | 1.0 | 5 | -12 | 5464
Cc1ccsc1C(=O)C1CCCN(Cc2cnc(N3CCCC3)s2)C1 (stereo not drawn) | -14 | 7 | 11 | 3.3 | -2 | -8 | 2540

More entries
SMILES	BJeLR viability	Mtb hypoxia rep	Mtb hypoxia rep growth	Sa RN4220 lethal	Sa ugtP lethal	PrP UTR inh	Autofluor counter
CCCNS(=O)(=O)c1cc2c3c(c1)CCN3C(=O)CC2	5	-2	0	-1.0	0	-35	5671
COc1cc(NC2c3ccccc3C(=O)N2c2cc(C)ccn2)cc(OC)c1OC (stereo not drawn)	-3	4	10	-8.7	-4	-21	6412
CC(C)C(NS(=O)(=O)c1cccc2nsnc12)C(=O)Nc1nc2ccc(Cl)cc2s1 (stereo not drawn)	0	7	4	-2.3	-5	-25	6137
COc1ccc(OC)c(C2N(c3ccccn3)C(=O)C3CCCN32)c1 (stereo not drawn)	-6	6	6	5.4	-2	-25	4325
CCCn1c(N2CCOCC2)nc2c1c(=O)[nH]c(=O)n2C	-5	-2	2	-2.0	-8	-19	7960
O=C(Cc1cccs1)Nc1cccc(C(=O)Nc2ccco2)c1	/	15	9	5.3	3	-19	4140
Oc1ccc(/C=N/NC(=S)N2CCOCC2)cc1	4	/	/	/	/	-18	4094
Cc1cccc(Cn2c(N3CCc4ccccc4C3)nc3c2c(=O)[nH]c(=O)n3C)c1	-3	17	3	-7.3	-2	-48	3072
Oc1ccccc1CNCCCN1CCOCC1	13	14	6	3.5	-1	-25	3787
CN(C)S(=O)(=O)c1ccc(NC(=O)N2CCN(c3ccccc3Cl)CC2)cc1	-4	6	10	0.2	7	-12	3384
CC(=NNc1cc(-c2ccccc2)nc(-c2ccccc2)n1)c1ccc(O)c(C)c1	/	8	0	98*	99*	/	/
O=C(Nc1ccc(C(=O)NCc2ccccc2Cl)cc1)C1=CSCCO1	18	8	-3	3.6	6	-19	4629
